B2AR ag – human beta-2 adrenergic receptor agonism by FAP; P07550; 340,000 tested, 0.43% active; Am2.2-beta2AR cells, FAP receptor internalization, flow cytometry; reference of the scale not given here; response, % (concentration not given with the values);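 active = response above a set limit, near 3 SD of response in nonfluorescent compounds, cut at about 42% in these data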;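 note: stock transfer was 100 nL into about 11 µL; a reference agonist was the positive control; negative values mostly stem from fluorescent compounds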
Beta cell apopt – beta cell apoptosis inhibition. INS-1E cytokine-induced death, ATP luminescence, 48 h; percent of positive-control rescue, neutral wells zero. protection from apoptosis, % (concentration not given with the values). 300,000 tested, 0.8% active;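 active = all replicates at 75% or more, or half of them and the mean; inconclusive = half reach 75% but not the mean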;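 note: 0% = cytokine-treated negative control wells and 100% = positive control rescue; higher means more ATP so stronger rescue from cytokine killing; wells of about 40 µL received 100 nL stock; the first replicate is given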
A1 inh – inhibitors of the anti-apoptotic protein A1, read as caspase activation | MEF A1-2A-BIM cells, Caspase-Glo 3/7 luminescence, 3 h; percent of clofoctol response, vehicle zero | caspase activation, % (no concentration beside the values) | 330,000 tested, 0.066% active;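 active = over half of replicate activation scores above 10%, or exactly half above 10 with the replicate mean above 10; inconclusive = replicate mean below 10 yet half the replicates above 10; inactive = over half of replicates below 10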;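 note: wells of about 30 µL received 50 nL stock; many hits fall short of the cut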
T cruzi repl – blocks replication of Trypanosoma cruzi; T. cruzi beta-gal in NIH3T3, luminescence, 90 h; inhibition, % (test concentration not listed); 300,000 tested, 1.4% active; AID 1885;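 active = mean inhibition across valid replicates above about 55%, limit read from the data; inconclusive = mean below that limit but half or more replicates reach it; inactive = mean below it, under half of replicates reach it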;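 note: signal also drops with host cell toxicity which is not excluded here; 0% = plate median of DMSO wells and 100% = zero luminescence signal; higher percent means less beta-gal luminescence so fewer parasites; stock transfer was 50 nL into about 50 µL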
LANA-H2A inh – blocks KSHV LANA binding to histone H2A/H2B; Q9QR71; cell-free LANA-H2A/H2B peptide, fluorescence polarization; inhibition, % (concentration not given with the values); 320,000 tested, 0.6% active; AID 2629; in the data active = inhibition mostly above about 10%, no sharp cut-off; inactive = mostly below about 6.7%;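 note: stock transfer was 7.5 nL into about 10 µL; 0% = median of vehicle wells and 100% = median of positive control wells; one replicate is shown; the record names a cut of 25% in any replicate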
Target sequence (Q9QR71 whole entry, looked up): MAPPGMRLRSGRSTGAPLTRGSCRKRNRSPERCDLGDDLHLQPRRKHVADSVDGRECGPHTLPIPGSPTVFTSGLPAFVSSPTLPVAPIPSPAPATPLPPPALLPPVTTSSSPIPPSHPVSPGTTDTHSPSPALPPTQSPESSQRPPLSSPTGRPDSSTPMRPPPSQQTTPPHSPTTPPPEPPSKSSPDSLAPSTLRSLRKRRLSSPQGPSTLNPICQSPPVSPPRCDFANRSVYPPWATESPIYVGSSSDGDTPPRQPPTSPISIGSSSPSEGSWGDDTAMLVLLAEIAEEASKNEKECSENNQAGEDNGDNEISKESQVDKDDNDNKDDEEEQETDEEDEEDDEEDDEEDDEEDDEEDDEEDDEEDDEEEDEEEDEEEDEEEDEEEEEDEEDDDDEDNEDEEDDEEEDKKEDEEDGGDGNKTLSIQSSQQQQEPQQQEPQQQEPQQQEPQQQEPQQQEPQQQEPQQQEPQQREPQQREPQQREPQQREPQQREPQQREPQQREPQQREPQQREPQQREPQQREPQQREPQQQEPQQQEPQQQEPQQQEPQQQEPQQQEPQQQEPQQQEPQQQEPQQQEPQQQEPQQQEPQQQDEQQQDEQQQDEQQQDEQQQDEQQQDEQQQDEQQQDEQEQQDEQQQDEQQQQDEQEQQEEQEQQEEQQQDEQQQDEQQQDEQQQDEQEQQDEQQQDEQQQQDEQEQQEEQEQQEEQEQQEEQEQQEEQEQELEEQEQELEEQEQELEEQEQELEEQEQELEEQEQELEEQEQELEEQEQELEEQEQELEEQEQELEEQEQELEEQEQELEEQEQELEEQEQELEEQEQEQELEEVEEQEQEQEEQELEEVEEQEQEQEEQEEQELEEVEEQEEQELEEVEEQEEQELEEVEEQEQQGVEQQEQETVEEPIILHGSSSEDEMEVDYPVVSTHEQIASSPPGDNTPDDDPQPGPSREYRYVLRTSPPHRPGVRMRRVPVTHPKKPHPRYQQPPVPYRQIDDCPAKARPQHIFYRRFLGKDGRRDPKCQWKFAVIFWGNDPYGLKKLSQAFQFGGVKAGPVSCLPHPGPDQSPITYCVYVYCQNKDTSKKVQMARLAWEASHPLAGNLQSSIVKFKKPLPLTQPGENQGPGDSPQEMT
UCH37 inh – inhibitors of human deubiquitinating enzyme UCH37; Q9Y5K5; purified proteasome/UCH37, Ub-AMC cleavage fluorescence; inhibition, % (test concentration not listed); 330,000 tested, 0.33% active; AID 588478;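 active = mean of two replicates above 20%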;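 note: 0% = compound-free wells with enzyme and 100% = wells lacking proteasome; stock transfer was 100 nL into about 20 µL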
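System: Proteasome-associated human UCH37 deubiquitinase; Input: 0.15 nM proteasome in added enzyme buffer; Also added: Ub-AMC substrate from 1 µM stock; Incubation: 30 min compound-proteasome preincubation then 25 min substrate reaction, room temperature; Detection: fluorescence, ex 355 nm, em 460 nm; Read-out: % inhibition of Ub-AMC cleavage fluorescence; Benchmarks: no-proteasome and no-compound wells.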
RanGTP-Imp inh – inhibitors of RanGTP-importin-beta interaction, primary screen, biochemical, FRET, CFP-Ran, YFP-importin-beta, homogeneous; cell-free CFP-Ran/YFP-importin-beta FRET ratio; inhibition, % (no concentration beside the values); 300,000 tested, 1.1% active; AID 2216;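 active = most replicates above 15%; inconclusive = exactly half above 15%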;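 note: 0% = DMSO wells and 100% = Ran loaded with GDP instead of GTP; wells of about 40 µL received 100 nL stock; the first replicate is given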
Calb FLC – affects C. albicans growth with fluconazole; 300,000 tested, 0.57% active; AID 1979; C. albicans CaCi-2 (fluconazole-resistant clinical isolate) + fluconazole, Alamar Blue growth, 48 h; growth inhibition, % (concentration not given with the values);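 active = most replicates above 75%; inconclusive = exactly half above 75%; inactive = most below 75%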;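 note: all wells also contain fluconazole at 8 µg/ml as a sub-toxic cotreatment; 0% = median of DMSO wells and 100% = median of geldanamycin control wells; wells of about 8 µL received 7.5 nL stock; the first replicate is given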
Starred values were filed as active, the others as inactive; i = inactive; ? = inconclusive; . = not tested or not shown.

SMILES,A1 inh,Calb FLC,Beta cell apopt,LANA-H2A inh,T cruzi repl,RanGTP-Imp inh,UCH37 inh,B2AR ag
CCC(=O)Nc1ccc(N2CCN(Cc3ccccc3F)CC2)cc1,0.0,-21,-1,5.0,-5,0.6,-1.4,2
COc1cccc(C(=O)NC(=S)Nn2cnnc2)c1OC,0.2,21,0,-2.8,-13,0.0,1.5,-2
O=C(COC(=O)c1ccc2c(c1)OCO2)Nc1nc(-c2ccccc2)cs1,-0.3,11,1,-2.5,-13,-6.8,2.5,0
Cc1nccn1CCCN1C(=O)CNC1=S,0.6,-17,1,-5.3,-6,?,0.2,-4
Cc1nnc(SCC(=O)NC(=O)NCc2ccco2)s1,0.9,3,-8,-3.2,2,11,-2.1,1
O=S(=O)(Nc1cc(S(=O)(=O)N2CCOCC2)ccc1N1CCCC1)c1cccs1,0.3,-3,-7,-1.3,6,-3.3,6.6,0
O=C(COc1ncnc2scc(-c3ccccc3)c12)NC1CCCc2ccccc21 (stereo not given),-0.8,-3,1,-0.3,-5,-1.7,3.6,-2
c1cnc2nc(CSc3ncn[nH]3)cn2c1,2.5,-3,-1,1.1,-2,.,-442,-7
COC(=O)COc1ccc2oc(=O)cc(-c3cc4cccc(OC)c4o3)c2c1,0.8,-11,3,-3.7,-24,0.8,-4.4,13
Cc1nnc(SCC(=O)NC2CCS(=O)(=O)C2)n1-c1ccccc1 (stereo not given),2.2,-12,-6,-1.6,14,0.0,1.4,-3
CCCNC(=O)N1CCCC(C(=O)c2cccc(Cl)c2)C1 (stereo not given),-0.6,-2,-5,6.9,0,-1.7,4.6,-4
COc1ccc(NC(=O)CN2C(=O)NC3(CC(C)CC(C)(C)C3)C2=O)cc1S(=O)(=O)N1CCCCC1 (stereo not given),1.8,14,.,-4.7,-2,1.4,1.6,1
COc1ccc(CCNC(=O)Cn2cnc3c2c(=O)n(C)c(=O)n3C)cc1OC,0.0,-5,-3,3.2,-22,-0.3,3.4,-2
CC1CCN(S(=O)(=O)c2ccc(NC(=O)Cc3ccccc3)cc2)CC1,1.4,-9,-2,6.1,13,-0.3,6.3,3
CCOc1ccc(C(=O)CCN2CCCCC2)cc1,0.7,5,-12,-2.5,22,5.7,-4.8,-4
N/C(=N\NS(=O)(=O)c1ccccc1Cl)c1ccccn1,-0.1,-2,.,0.7,1,3.7,5.7,2
O=C(CCc1ccccc1)Nc1cccc(NC(=O)CCc2ccccc2)c1,-0.1,-1,2,4.0,-10,-1.7,4.4,-2
O=C(C1CCC1)N1CCc2cc(S(=O)(=O)NCc3ccco3)ccc21,0.4,4,-2,0.3,-33,2.0,1.3,12
CN1CCN(c2ccccc2/C=C2/C(=O)Nc3ccccc32)CC1,-0.4,3,.,-2.9,11,2.0,8.4,8
CCCn1c(CNC(=O)c2ccccc2)nc2ccccc21,-0.1,-2,3,-0.2,3,-0.3,2.9,1
C/C(=N\Nc1cccc(Cl)c1)c1ccc(-n2ccnc2)cc1,0.1,.,1,1.5,.,.,.,9
COc1ccc(C(C)(C)C)cc1NC(=O)CCc1c(C)noc1C,-0.2,.,2,30*,.,.,.,-8
COC(Cc1n[nH]c(=S)n1-c1ccc(Cl)cc1)OC,-1.1,36,2,0.0,-5,-4.1,0.2,4
CCSC(=Nc1ccccc1)N1CCOCC1,0.9,1,-7,-1.7,4,0.2,0.8,7
CCCCCC#CCC#CCC#CCC#CCCCC(=O)O,.,8,.,0.1,11,0.2,.,.
CC1CCCCN1C(=O)CSc1nc2cc3c(cc2c(=O)n1Cc1ccc2c(c1)OCO2)OCO3 (stereo not given),0.8,2,5,1.2,16,1.9,1.5,2
O=C(CNc1cccc(Cl)c1)c1ccc(Br)cc1,-0.2,9,-4,6.0,-7,-1.4,3.2,9
Cc1ccc(S(=O)(=O)c2nc(S(=O)(=O)c3ccc(C)cc3)c(N3CCN(CCO)CC3)s2)cc1,1.4,-1,.,-4.4,-24,0.3,0.1,0
Cc1cc(C)cc(NC(=O)CN2CCN(c3ccccn3)CC2)c1,-0.8,0,-1,-2.9,-6,6.1,1.5,-2
COC(=O)c1sc(N(C)C)c(C#N)c1-c1ccccc1,-0.2,11,.,-3.1,4,0.1,4.2,-2
COC(=O)CN(c1ccc(C)cc1)S(=O)(=O)c1c(C)[nH]c(=O)[nH]c1=O,-0.7,-2,2,0.0,5,3.8,2.5,9
Cc1nc(/C=C\C(=O)O)c2cc(C)oc2n1,0.2,5,-3,5.8,-12,5.3,i,4
O=S(=O)(/C=C/c1ccccc1)N1CCN(c2nc(-c3cccnc3)nc3ccccc23)CC1,-0.3,-4,-4,1.5,34,-0.6,-1.8,-1
CCOC(=O)CCc1c(C)c2ccc(OCc3cc([N+](=O)[O-])ccc3OC)c(C)c2oc1=O,-0.7,0,2,0.8,-2,-1.8,.,.
CC(/C=N/N1CCN(c2ccccc2)CC1)=C\c1ccco1,-8.7,-23,.,-6.1,-5,0.1,.,-7
COc1ccc(F)cc1C(=O)C1CCCN(C(=O)C2=C(C)OCCO2)C1 (stereo not given),0.4,-11,-15,5.3,13,1.1,-1.3,-8
CCN=c1sc(C(=O)NCCc2ccccc2)cc(=O)n1CC,1.6,26,-20,3.5,10,1.0,1.8,10
Cn1ccc(C(=O)Nc2sc3c(c2C#N)CCC3)n1,-0.2,-1,7,14,-4,5.8,3.7,1
Cc1ccc(CC(=O)Nc2ccc(Cl)cn2)cc1,0.2,-16,2,-5.4,-2,7.4,4.8,-6
S=C(NC1CCCC1)NC1CCCC1,0.1,6,6,-2.0,-18,-1.7,1.1,7
Cc1[nH]cc(Br)c(=O)c1Oc1ncc(C(F)(F)F)cc1Cl,-0.2,23,-5,0.8,-11,2.8,3.9,1
C#CCOCCOCCOCCNc1nc(N2CCOCC2)nc(N2CCN(C(=O)[C@H]([C@@H](C)CC)n3cc([C@@H](N)CC(C)C)nn3)CC2)n1,1.4,-1,-2,-2.0,7,3.2,1.1,1
Cc1ccc(S(=O)(=O)/N=C(/c2ccccc2)N(C)c2ccc(O)cc2)cc1,1.3,-3,0,-4.0,-12,2.0,.,-3
COc1cc2ncnc(NCc3ccc(C)o3)c2cc1OC,0.8,22,6,1.7,8,3.2,3.6,3
Cc1ccc(N(CC(=O)NCc2ccccc2)C(=O)CCC(=O)Nc2nccs2)cc1,0.2,3,-3,0.2,1,0.3,3.6,-1
Cc1cccc(-c2c3c(=O)n(C)c(=O)n(C)c3cn2-c2ccccc2O)c1,0.3,1,-2,0.0,2,-0.4,-7.3,5
CC(=O)c1ccc(C(=O)NC2CCCN(Cc3ccc(Cl)cc3)C2)s1 (stereo not given),0.6,6,3,-33,14,4.1,5.4,-16
CC1CCN(c2c(NCC3CCC(C(=O)NCc4ccccc4)CC3)c(=O)c2=O)CC1 (stereo not given),0.4,-3,1,1.9,-16,?,2.8,-6
COc1ccc(NC(=S)Nc2ccccc2)c(OC)c1,-0.7,7,0,10.0,-6,-2.1,2.5,-1
CN(C)c1ccc(C(=S)NCc2ccco2)cc1,-1.9,-2,-3,-1.3,-13,-0.2,6.7,3
COc1ccccc1C(=O)Nc1ccc(S(=O)(=O)Nc2onc(C)c2C)cc1,-0.2,-9,-2,5.3,-14,?,1.7,5
Cc1cc(C)cc(N2C(=O)CC(Sc3nnnn3-c3ccccc3)C2=O)c1 (stereo not given),1.0,-22,-27,-2.5,3,-3.7,6.2,51*
COc1ccc(NC(=O)c2cncc(Br)c2)c(S(=O)(=O)N2CCOCC2)c1,?,-1,-6,1.3,0,0.9,35*,-16
CC(=O)c1ccc(OCc2cc(C(=O)N(C)C3CCOC3)no2)cc1 (stereo not given),-1.1,-37,-2,10,-16,-2.7,1.1,1
COc1cc(SC)ccc1C(=O)Nc1cc(C)ccn1,-4.6,15,-4,4.7,4,-5.8,4.8,-2
CCCN(CC1CC1)C(=O)CSc1ncnc2sccc12,0.4,-11,-2,2.3,5,-2.7,-0.2,6
COc1ccc(C(Nc2ccc(S(=O)(=O)N3CCOCC3)cc2)C(=O)NCCC(C)C)cc1OC (stereo not given),1.2,4,2,2.8,-6,-2.0,-0.4,5
S=c1[nH]nc(-c2n[nH]c3c2CCC3)n1/N=C/C=C/c1ccccc1,-0.1,-1,2,8.7,-9,1.8,.,-7
c1ccc(Nc2nc(N3CCCCC3)nc(N3CCNCC3)n2)cc1,1.1,-27,5,-3.6,30,-2.2,2.5,-2
CCN(CC)CCn1c(SCC(=O)NCc2ccco2)nc2c(sc3ccccc32)c1=O,-0.9,5,0,-6.5,12,3.1,-2.6,-12

Carrying on:
SMILES,A1 inh,Calb FLC,Beta cell apopt,LANA-H2A inh,T cruzi repl,RanGTP-Imp inh,UCH37 inh,B2AR ag
COc1ccccc1N(C)S(=O)(=O)c1ccc(C(=O)N2CCC(C(N)=O)CC2)cc1,0.6,2,-2,-0.9,-10,-1.1,-1.7,1
Cc1ccc(S(=O)(=O)/N=C(/c2ccccc2)N2CCOCC2)c(C)c1,-0.6,81*,.,5.2,-3,-2.4,.,-4
Cc1ccc(-c2nn(-c3cc(N4CCNCC4)ccc3[N+](=O)[O-])c(=O)c3ccccc23)cc1,-0.3,12,6,3.2,73*,1.4,7.8,2
Cn1cccc1Cc1nnc(SCC(=O)N2CCCC2)n1CCc1ccccc1,-0.4,1,3,-5.2,14,3.2,9.6,-10
O=C(NCCSc1ccc(Cl)cc1)c1ccco1,0.2,28,6,3.4,-5,-1.9,4.8,-12
CC(NC(=O)C1CCCCC1)C(c1cccs1)N1CCOCC1 (stereo not given),0.5,1,-2,-3.1,-9,4.2,3.9,2
COc1cc(/C=N/N2CCN(Cc3ccc(Cl)cc3)CC2)ccc1OC(C)=O,0.2,0,-1,5.0,3,0.8,.,6
O=C(c1cccc(S(=O)(=O)N2CCCCC2)c1)N1CCc2ccccc21,-0.2,-8,2,5.9,0,6.3,5.9,-20
CCOC(=O)C1=NN(c2ccccc2)C2=NC(C)=C(C(=O)OC)C(c3ccc(C)cc3)N12 (stereo not given),0.0,-5,-4,1.6,3,1.6,-3.5,-9
CC(C)C(=O)Nc1ccc(Nc2ccccc2)cc1,-0.4,-6,2,7.4,-2,0.4,3.3,3
COc1ccc(/C=C(\C#N)c2nc3ccc(C)cc3[nH]2)cc1Oc1ccc(C(F)(F)F)cc1[N+](=O)[O-],0.6,1,43,3.6,-2,11,3.2,4
Cc1ccccc1CC1(CO)CCCN(Cc2ccccc2Cl)C1 (stereo not given),-0.2,-1,.,0.0,21,-2.7,2.8,4

Compound activity from PubChem BioAssay.
